Source: PubChem BioAssay (several laboratories)
Sa RN4220 lethal – S. aureus RN4220 growth inhibition | OD600, 16 h | inhibition, % (no concentration beside the values) | actives 0.33% (n = 330,000);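 active means z-score of -3 or lower and OD600 up to 0.18 on both plates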;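 further: plate controls were untreated cells for no effect and reference antibiotic for full effect; stock transfer was 100 nL into about 80 µL; one replicate is shown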
PrP UTR inh – suppresses PrP 5' UTR mRNA reporter expression | cell-based PrP 5' UTR mRNA reporter, plate reader | inhibition, % (concentration not given with the values) | actives 0.35% (n = 340,000) | AID 488862;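 active means every replicate at 50% or more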;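 further: 0 = median of the neutral control wells; tested in H4 reporter cells; numbers are from one replicate; inactives centre near -14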
Sa ugtP lethal – compounds lethal to S. aureus RN4220 ugtP deletion mutant; OD600 growth, 16 h; some inactives read as strong as hits; growth inhibition, % (test concentration not listed); actives 0.54% (n = 330,000);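 active means z-score under -3 and OD600 up to 0.15 on both plates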;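 further: plate controls were untreated wells for no effect and antibiotic for full effect; wells of about 80 µL received 100 nL stock; the first replicate is given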
Autofluor counter – flagged as autofluorescent in microsphere protease counterscreen | compound autofluorescence counterscreen, microsphere flow cytometry; hits give high values | fluorescence intensity (no concentration beside the values) | actives 3.1% (n = 360,000) | AID 624483;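 active means at least 3 SD above the mean of all compounds, about 16000 in these data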;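 further: 100 nL of 1 mM stock went into each well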
Mtb hypoxia inh – reduces hypoxia-regulated biosensor signal in M. tuberculosis; fluorescence inhibition, % (test concentration not listed); M. tuberculosis hypoxia-regulated fluorescent reporter, fluorescence; AID 1159583; actives 0.1% (n = 300,000);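 active means 35 to 45% if threefold the growth effect, above 45% if 1.5-fold the growth effect; inactive means the rest, general growth blockers included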;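 further: wells of about 50 µL received 100 nL stock; 0% = vehicle wells and 100% = reference inhibitor wells; whole bacteria with a GFP reporter of the hypoxia response; strong numbers were not always called active; many hits fall short of the cut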
BJeLR viability – kills HRASV12-expressing BJeLR cells; BJeLR (HRASV12) viability, CellTiter-Glo ATP luminescence, 48 h; reference of the scale not given here; inhibition, % (concentration not given with the values); actives 0.17% (n = 300,000); AID 1554;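 active means replicate mean above 50%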;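 further: 50 nL library stock added to about 25 µL; numbers are from one replicate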
Mtb hypoxia inh growth – second read-out of Mtb hypoxia inh, no call of its own (marks repeat the call); growth inhibition, %; measured here: M. tuberculosis growth (absorbance);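 0% = vehicle and 100% = reference antibiotic; read after six days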
* marks the source's active call; other numbers are inactive results; x = not tested or not shown.

SMILES	Sa RN4220 lethal	PrP UTR inh	Sa ugtP lethal	Autofluor counter	Mtb hypoxia inh	Mtb hypoxia inh growth	BJeLR viability
CCOC(=O)c1c(C)[nH]c(C(=O)Cn2nnc(-c3ccc(Cl)cc3)n2)c1C	-3.5	-27	-7	8155	4	2	-4
c1ccc(CN2CCC(=NNc3nc4ccccc4[nH]3)CC2)cc1	2.4	3	-3	3534	0	9	2
CN(C)N1C(N)=C(C#N)C(c2ccccc2)C2=C1CC(C)(C)CC2=O (stereo unspecified)	-0.3	-23	11	3738	12	2	3
COCCn1ccc2c(OCC(=O)Nc3cccc(NC(C)=O)c3)cccc2c1=O	5.8	-21	3	5378	3	-2	-1
CC(C)(C)c1ccc(S(=O)(=O)NCCc2ccncc2)cc1	3.1	-21	0	4837	x	x	0
N#C/C(=C\c1ccc(-c2cccc([N+](=O)[O-])c2)o1)C(=O)NCCN1CCOCC1	5.7	-15	5	4868	26	6	7
CCc1ccc(N(CC(=O)NC2CC2)S(=O)(=O)c2ccc(C)cc2)cc1	1.6	-1	-4	4228	3	-2	2
COC(=O)COc1ccc(S(=O)(=O)Nc2ccc(C(N)=O)cc2)cc1C	0.3	-18	4	11636	2	-1	-6
Cc1ccc(NC(=O)CN2C(=O)N/C(=C/c3ccc(N4CCOCC4)cc3)C2=O)cc1	3.0	-51	5	2559	12	-6	-10
CC(C)C(NS(=O)(=O)c1ccccc1)C(=O)OCC(=O)NC(=O)c1cccn1C (stereo unspecified)	8.5	x	8	x	6	10	x
O=S(=O)(c1cnc(Cl)c(Br)c1)N1CCc2ccccc21	-0.9	11	0	4914	10	1	17
Cc1ccc(C)c(S(=O)(=O)N2CCN(C(=O)Cn3cnc4c3c(=O)n(C)c(=O)n4C)CC2)c1	3.7	1	-2	3935	-6	-3	-4
Cc1ccc(NC(=O)CSCC(=O)Nc2cccc3ncccc23)cc1	1.4	-14	-2	6126	-2	-8	2
Cc1nn(-c2ccccc2C(F)(F)F)c(=O)c2noc(C)c12	4.7	-10	8	3904	2	4	-10
Cc1nn(C)cc1S(=O)(=O)NCc1ccccc1Cl	4.1	-23	-2	4999	7	-7	8
CC(C)[N+](C)(C)CC#CC(O)(c1ccccc1)c1ccccc1	3.2	-15	7	4032	14	8	7
O=C(NCCCn1ccnc1)NC(C(F)(F)F)C(F)(F)F	1.3	-5	-2	4233	4	2	-2
Cc1ccc(N2CC(C(N)=O)CC2=O)cc1C (stereo unspecified)	6.9	-22	4	4303	8	11	-3
CCOc1ccc(NC(=O)NCCCn2c(C)nc3cc(C)c(C)cc32)cc1	-0.9	-16	6	6471	9	11	-20
CCNC(=O)NC(=O)CSc1ccccc1F	4.4	-15	-1	2004	2	6	-2
CCOc1ccc2[nH]c(=O)c(CN(CCO)Cc3nnnn3CCc3ccccc3)cc2c1	6.4	-10	1	6275	-1	6	7
CC(=O)N1CCc2c(sc(NC(=O)Cc3ccc(C)cc3C)c2C#N)C1	4.1	-1	0	5911	2	10	9
CC(CC(=O)Nc1cc(C)cc(C)c1)=NNC(=O)c1ccccn1	-1.4	x	9	x	4	-4	x
O=C(COc1ccc(Cl)cc1)N1CCN(C2CCCC2)CC1	2.7	-20	-3	5056	14	14	-5
O=C(Cc1ccccc1)NNS(=O)(=O)c1ccccc1[N+](=O)[O-]	5.5	6	8	5099	-1	8	-3
CCOc1ccc(NC(=S)NC(=O)C2CCCC2)cc1	1.3	-31	16	5232	x	x	-17
COc1ccc(C(=O)N(C)CC2CCN(CCc3cccc(C(F)(F)F)c3)CC2)cc1C	1.6	16	0	5880	-3	11	-1
Cc1ccc(NS(=O)(=O)c2ccc3c(c2)C(=O)c2ccccc2C3=O)c(C)c1	22	-30	-8	2064	5	7	x
COc1cccc(CNC(=O)CSCc2cnn(-c3ccccc3)c2-n2cccc2)c1	-0.2	-14	5	9467	13	9	-9
Cn1cc(SCC(=O)NC2CCCCC2)c2ccccc21	-1.0	-15	2	6650	2	11	10

Looked up by compound from the list above:
SMILES	Sa RN4220 lethal	PrP UTR inh	Sa ugtP lethal	Autofluor counter	Mtb hypoxia inh	Mtb hypoxia inh growth	BJeLR viability
Cn1cc(SCC(=O)NC2CCCCC2)c2ccccc21	-1.0	-15	2	6650	2	11	10
O=C(Cc1ccccc1)NNS(=O)(=O)c1ccccc1[N+](=O)[O-]	5.5	6	8	5099	-1	8	-3

3 entries already listed, ordered by SMILES length, highest first:
SMILES	Sa RN4220 lethal	PrP UTR inh	Sa ugtP lethal	Autofluor counter	Mtb hypoxia inh	Mtb hypoxia inh growth	BJeLR viability
COc1ccc(C(=O)N(C)CC2CCN(CCc3cccc(C(F)(F)F)c3)CC2)cc1C	1.6	16	0	5880	-3	11	-1
CC(=O)N1CCc2c(sc(NC(=O)Cc3ccc(C)cc3C)c2C#N)C1	4.1	-1	0	5911	2	10	9
CCNC(=O)NC(=O)CSc1ccccc1F	4.4	-15	-1	2004	2	6	-2

(continued)
SMILES	Sa RN4220 lethal	PrP UTR inh	Sa ugtP lethal	Autofluor counter	Mtb hypoxia inh	Mtb hypoxia inh growth	BJeLR viability
CN(c1ccccc1)S(=O)(=O)c1ccc(-c2ccccc2)cc1	6.1	14	6	x	0	1	3
Cc1sc(NC(=S)NC(=O)c2cccs2)nc1-c1ccc(CC(C)C)cc1	-0.3	-15	35	19915*	-1	5	-11
Cc1ccc(S(=O)(=O)N(C)CC(=O)N/N=C/c2ccc(C)o2)cc1	x	-9	x	4709	x	x	5
Cc1nc(SCc2cccc(F)c2)c2oc3ccccc3c2n1	4.4	-17	3	4373	x	x	-2
CC(C)(C)NC(=O)CC1C[C@H](C(=O)N2CCCCC2)[C@@]2(CCc3ccccc3)c3[nH]c4ccccc4c3CCN2C1=O (stereo partly specified)	-0.1	-24	6	2955	-12	-14	x
CC(=O)Nc1ccc(S(=O)(=O)NCCOc2ccc(Cl)cc2C)cc1	5.9	-33	-3	4691	5	1	0
Oc1ccc2ccccc2c1CN1CCN(C/C=C/c2ccccc2)CC1	0.9	-6	5	2973	-9	-1	-4
CC(C)N1C(=O)c2ccccc2C1C(=O)NCCc1ccccc1 (stereo unspecified)	6.3	-11	7	4227	4	8	-5
COc1cc(CN(C)CC(=O)c2[nH]c(C)c(C(C)=O)c2C)ccc1OC(F)F	0.3	-29	-3	2704	x	x	-4
COc1ccc2c(c1)C1NC(=S)NC(C)(O2)C1C(=O)Nc1ccc(Cl)cc1 (stereo unspecified)	-6.8	-21	3	2517	-5	18	-5
COc1ccc(N(C2=NCCCS2)S(=O)(=O)c2ccc(C(C)(C)C)cc2)cc1	11	0	6	3323	7	7	-7
Cc1nc2ccc(C(=O)NN=Cc3ccc(O)cc3)cc2[nH]1	-4.4	x	-4	x	5	7	x
O=C(Cc1ccc(Cl)cc1)NNc1c(F)c(F)cc(F)c1F	15	-17	9	2656	14	6	-14
CC(OC(=O)c1nn(C(C)C)c(=O)c2ccccc12)C(=O)Nc1ncc(Cl)cc1Cl (stereo unspecified)	4.6	2	-2	7672	7	6	10
Cc1cc(C)n(-c2nc(-c3ccc(Cl)cc3)cs2)n1	0.4	-34	7	4749	x	x	2
Cc1ccc(S(=O)(=O)N2CCN(C(=O)c3n[nH]c(=O)c4ccccc34)CC2)c(C)c1	0.7	15	4	4595	-1	-2	x
COc1ccccc1NS(=O)(=O)c1cccc(N=C2N=C(N)c3ccccc32)c1	4.0	-19	0	2809	6	5	-2
CCOc1ccc2ccccc2c1C=NNC(=O)CNC(=O)c1ccccc1O	2.1	x	0	x	3	2	x
COc1cccc(NC(=O)c2nc(S(C)(=O)=O)ncc2Cl)c1	x	-24	x	5716	x	x	25
CCCCCc1c(C)nc(N2CCc3ccccc32)[nH]c1=O	-13	-31	-12	2394	-2	7	2
CCCN1CCN(S(=O)(=O)c2c(C)[nH]c(C)c2C(=O)N2CCCCC2)CC1	1.6	-14	5	5483	17	8	4
COc1ccc(S(=O)(=O)n2ccc(C(C)Oc3ccc(-c4ccccc4)c(F)c3)n2)cc1 (stereo unspecified)	-3.0	-3	-3	9903	7	9	-7
O=C(NCCSCc1ccco1)Nc1cc(Cl)cc(Cl)c1	-4.6	-23	-40	3509	-2	-3	-6
O=C(c1ccc2c(c1)OCCO2)C1CCN(C(=O)c2ccc(F)cc2)CC1	2.2	1	0	12167	-6	2	7
C=CCOc1ccc(C=Nn2nnnc2N)cc1OC	2.2	x	0	x	-2	21	x
Cc1cccc(C)c1OCCn1nc(C(=O)O)c2ccccc2c1=O	0.7	-23	-6	4074	x	x	7
COc1ccc(OC)c(NC(=O)COC(=O)c2c3c(nc4ccccc24)CCCC3)c1	-0.6	-13	-12	11608	4	8	-7
Fc1ccc(-c2ccc(/C=N/n3cnnc3)o2)cc1	x	-13	x	3683	x	x	5
Cc1c(C(=O)N2CCCCC2C)sc2nc3n(c(=O)c12)CCC3 (stereo unspecified)	0.7	-25	16	4909	9	1	4
CCN(CC)S(=O)(=O)c1ccc(NC(=O)[C@@H](NC(=O)c2cc(OC)cc(OC)c2)C(C)C)cc1	2.0	-12	0	4880	-2	-6	-9

Exported with each value named: entries from further up.
SMILES: CCCCCc1c(C)nc(N2CCc3ccccc32)[nH]c1=O
  Sa RN4220 lethal = -13 | PrP UTR inh = -31 | Sa ugtP lethal = -12 | Autofluor counter = 2394 | Mtb hypoxia inh = -2 | Mtb hypoxia inh growth = 7 | BJeLR viability = 2
SMILES: CCCN1CCN(S(=O)(=O)c2c(C)[nH]c(C)c2C(=O)N2CCCCC2)CC1
  Sa RN4220 lethal = 1.6 | PrP UTR inh = -14 | Sa ugtP lethal = 5 | Autofluor counter = 5483 | Mtb hypoxia inh = 17 | Mtb hypoxia inh growth = 8 | BJeLR viability = 4
SMILES: COc1ccc(S(=O)(=O)n2ccc(C(C)Oc3ccc(-c4ccccc4)c(F)c3)n2)cc1 (stereo unspecified)
  Sa RN4220 lethal = -3.0 | PrP UTR inh = -3 | Sa ugtP lethal = -3 | Autofluor counter = 9903 | Mtb hypoxia inh = 7 | Mtb hypoxia inh growth = 9 | BJeLR viability = -7

More entries
SMILES	Sa RN4220 lethal	PrP UTR inh	Sa ugtP lethal	Autofluor counter	Mtb hypoxia inh	Mtb hypoxia inh growth	BJeLR viability
CCC(C)(C)NC(=O)c1ccc2c(c1)OCCO2	3.4	-18	7	3858	15	5	4
N#Cc1ccccc1NC(=S)NC(=O)C1CCC1	2.3	-1	5	6018	7	11	x
CN1C(=O)C(=Cc2ccc(N3CCCCCC3)cc2)C(=O)N(C)C1=O	4.1	2	5	3528	6	11	2
COCCn1c(C)cc(/C=C2\NC(=S)N(C)C2=O)c1C	3.2	-18	6	2652	11	6	14
CCOC(=O)N1CCN(S(=O)(=O)c2ccc(C(=O)NNc3nc4ccc(Cl)cc4s3)cc2)CC1	-6.2	-18	-8	4167	-1	8	18
Cc1ccc(-c2noc(CN3CCN(c4ccccc4F)CC3)n2)cc1	1.6	-27	12	5993	5	3	9
CC(=O)NC1CCN(CC(=O)Nc2cccc([N+](=O)[O-])c2)CC1	0.1	-16	7	4233	13	8	-2
CCCCNC(=S)N(C)/N=C/c1c(C)[nH]c2ccccc12	x	9	x	5277	x	x	-6

A few values from the results shown.
In Sa RN4220 lethal, `N#Cc1ccccc1NC(=S)NC(=O)C1CCC1` has the entry 2.3
In Mtb hypoxia inh, `CCC(C)(C)NC(=O)c1ccc2c(c1)OCCO2` has the entry 15
In Mtb hypoxia inh growth, `COCCn1c(C)cc(/C=C2\NC(=S)N(C)C2=O)c1C` has the entry 6
